A488 autofl: A488 region autofluorescence; compound autofluorescence, A488 spectral region, dye equivalency; stronger effect = higher value; max dye equivalency, M; 0.1% of 59,000 active; AID 591; active = above 10 nM dye equivalent; inconclusive = 1 to 10 nM; inactive = 1 nM or less; about half of its hits are not listed in these tables;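 also: highest value over a series up to 38 µM; compound alone in buffer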
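Intrinsic compound fluorescence is measured in 100 mM Tris buffer at pH 8.0 following 15 min incubation at room temperature. Intensities at 480 nm excitation/540 nm emission are calibrated to an on-plate A488 concentration series, giving dye-equivalent concentrations.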
TSHR agonist: TSH receptor (human) agonism | P16473 | HEK293-CNG-TSHR cells (CNG channel as cAMP sensor), membrane potential dye, cAMP | Potency, µM (highest dose often 57.1 µM), without a hit: top-dose activation, usual class: activators | 0.48% of 73,000 active | AID 926; active = well fitted activation curve of enough size with the parental cells flat; inconclusive = any curve in the parental cells; inactive = parental cells flat and receptor cells flat or falling; also: potency is read from the fitted curve at half-maximal effect; % of control where 0% means no effect; weak receptor curves with flat parental cells got no call and are not listed
Target sequence (P16473 whole entry, looked up): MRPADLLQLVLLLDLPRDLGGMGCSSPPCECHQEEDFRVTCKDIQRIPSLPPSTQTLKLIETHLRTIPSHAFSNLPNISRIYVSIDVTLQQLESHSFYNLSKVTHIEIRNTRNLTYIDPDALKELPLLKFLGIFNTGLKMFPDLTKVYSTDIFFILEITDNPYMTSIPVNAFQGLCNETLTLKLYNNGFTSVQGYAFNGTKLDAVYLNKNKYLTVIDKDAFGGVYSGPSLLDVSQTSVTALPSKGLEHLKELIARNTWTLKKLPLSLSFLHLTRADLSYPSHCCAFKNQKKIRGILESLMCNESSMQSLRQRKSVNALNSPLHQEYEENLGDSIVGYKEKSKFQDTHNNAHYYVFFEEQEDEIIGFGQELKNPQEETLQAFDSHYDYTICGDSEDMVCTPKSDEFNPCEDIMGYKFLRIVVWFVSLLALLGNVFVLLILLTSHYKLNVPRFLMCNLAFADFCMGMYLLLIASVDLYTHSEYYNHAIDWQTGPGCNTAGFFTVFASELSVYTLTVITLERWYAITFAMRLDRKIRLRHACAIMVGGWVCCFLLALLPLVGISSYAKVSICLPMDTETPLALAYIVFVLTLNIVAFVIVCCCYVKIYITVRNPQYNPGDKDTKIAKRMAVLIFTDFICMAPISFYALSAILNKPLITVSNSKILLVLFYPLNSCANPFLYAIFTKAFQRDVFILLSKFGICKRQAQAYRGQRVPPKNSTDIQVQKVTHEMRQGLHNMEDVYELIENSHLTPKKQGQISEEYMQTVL
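HEK 293 cells stably expressing TSHR and a modified CNG channel, with CNG-only parental cells as counterscreen, were preloaded 60 min at room temperature with membrane potential dye containing 100 uM RO 20-1724. Compound exposure was 30 min, and depolarization was read as fluorescence at 590 nm.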
AID923: qHTS Assay for Allosteric/Competitive Inhibitors of Caspase-1: Spectroscopic Profiling in AFC Spectral Region | 1.1% of 75,000 active | compound fluorescence, AFC spectral region (405/520 nm); almost no hit is shown here | Potency, µM (titrated, usually from 57.5 µM), without a hit: at the top dose fluorescence increase, hits mostly activators; active = well fitted activation curve with a large enough effect; inconclusive = small, poorly fitted or top-dose-only effect;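 also: potency is read from the fitted curve at half-maximal effect; 0% is about no effect; scaled to a free AFC standard on each plate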
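Compound autofluorescence profiled at 405 nm ex/520 nm em during kinetic caspase 1 run (50 nM enzyme, 5 uM Ac-WEHD-AFC, HEPES pH 7.5, 10 mM DTT). Titration up to 57 uM; baseline from regression intercept, normalized to AFC standard curve.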
Resorufin autofl: resorufin region autofluorescence. max dye-equivalent concentration, M. Compound fluorescence, resorufin region 547/598 nm, buffer; stronger effect = higher value. 0.04% of 59,000 active; active = above 10 nM dye equivalent; inconclusive = 1 to 10 nM; inactive = 1 nM or less; a few of its hits are not listed in these tables; also: highest value over a series up to 38 µM
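Compounds in 100 mM Tris buffer, pH 8.0, incubated 15 min at room temperature, then read with 547 nm excitation and 598 nm emission filters. Fluorescence was converted to dye-equivalent concentration using an on-plate six-point resorufin standard curve.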
A647 fluor: compound fluoresces in the A647 spectral region | max dye-equivalent concentration, M | Compound fluorescence, A647 channel (570/671 nm), Tris buffer | 59,000 tested, under 10 active | AID 592; active means above 1 µM dye equivalent; inconclusive means 0.1 to 1 µM; inactive means 0.1 µM or less;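 also: values scaled relative to a standard on each plate; highest value over a series up to 38 µM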
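Buffer was dispensed, compounds and Alexa 647 standards were pin-transferred, and plates sat 15 min at room temperature. Intensity at 570/671 nm was then converted to dye-equivalent concentration using the plate's A647 standard curve.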
* = called active by the depositor; i = inactive; ? = inconclusive; nt = no result given; [ ] = another dose, or the depositor's remark. These rows are one share of the data; count on the stated rates, not on these rows.

SMILES	A488 autofl	TSHR agonist	AID923	Resorufin autofl	A647 fluor
COc1cc(C(=O)OCC(=O)N2CCCC2)cc(OC)c1OC	i	1%	-0.2%	i	1.4e-08
CCOC(=O)C1CCCN(Cc2ccccc2F)C1 (stereo not given)	i	1%	-2.2%	i	7.5e-09
CN(C)CCCN1C(=O)C(=O)/C(=C(/O)c2ccc3c(c2)OCCO3)C1c1ccccn1 (stereo not given)	i	-8%	3.0%	i	1.6e-09
CCCCC(CC)COC(=O)c1ccccc1C(=O)O (stereo not given)	nt	-4%	-3.2%	nt	nt
CCCn1nnnc1SCC(=O)c1ccc2c(c1)OCCO2	i	11%	-2.8%	i	3e-09
COc1ccc2c(c1)CCc1c(C(=O)Nc3ccc(OC)c(OC)c3)noc1-2	i	1%	2.1%	i	6.7e-09
O=C(O)c1ccccc1S(=O)(=O)Cc1ccccc1	i	nt	1.0%	i	3.2e-09
Cc1cccc(C)c1NC(=O)CSc1nnnn1C	i	0%	1.7%	i	3.1e-08
Cc1cc(-c2cc(N)n(-c3ccccc3)n2)c(C)n1C1CCCC1	i	-9%	1.2%	i	3.4e-09
CN(C)C(=O)C12CCC(C)(c3nc4ccccc4nc31)C2(C)C (stereo not given)	i	10%	-0.2%	i	3.2e-08
COc1ccc(OC)c(N)c1	i	-10%	-1.7%	i	3.9e-08
O=c1cc(-c2ccccc2)c2c([nH]1)CCCC2	i	-4%	2.2%	i	8e-09
COc1ccc(CCNC(=O)COc2nsnc2N2CCOCC2)cc1OC	i	2%[11.4 µM]	1.1%	i	3e-09
O=C1CSC(c2ccncc2)N1Cc1ccco1 (stereo not given)	i	1%	1.1%	i	1e-09
Cn1c(NC(=O)c2ccc(Br)o2)cc(=O)n(C)c1=O	i	-3%	2.6%	i	2.8e-08
COc1nc(NCCc2ccc(OC)c(OC)c2)nc(NC(C)(C)CO)n1	i	-1%	1.2%	i	1e-09
O=C1OC(Nc2nc3ccccc3s2)c2ccccc21 (stereo not given)	i	-4%	1.7%	i	8.3e-09
CCOc1ccc2[nH]c(=O)c(CN(CCc3ccccc3)C(=O)c3cnccn3)cc2c1	i	17%	7.0%	i	2.5e-09
Cn1c(=O)c2c(ncn2CC(=O)NC(C)(C)C)n(C)c1=O	i	-2%	-1.0%	i	1e-09
Cn1cc(C2=C(c3cn(CCCSC(=N)N)c4ccccc34)C(=O)NC2=O)c2ccccc21	nt	?	-1.0%	nt	nt
Cc1cc2c(cc1Cl)N(C(=O)Nc1ccnc3ccccc13)CC2	i	11%	0.5%	i	1.4e-08
O=C(COc1ccccc1Cl)NCc1ccncc1	nt	-1%	-0.4%	nt	nt
Cc1nc2sc(C(c3cccs3)N3CCN(c4ccccc4)CC3)c(O)n2n1 (stereo not given)	nt	2%	-0.5%	nt	nt
CCn1c(=O)c(C(=O)NCCN2CCCCC2)c(O)c2ccccc21	i	20%	0.0%	i	5e-08
COCCOC(=O)C1=C(C)Nc2ncnn2C1c1ccccc1 (stereo not given)	i	-6%	3.1%	i	5.4e-09
Cc1oc(-c2ccc(Cl)cc2)nc1CN1CCCC(C(=O)NCc2cccnc2)C1 (stereo not given)	i	8%[11.4 µM]	0.3%	i	1e-09
CS(=O)(=O)NCCSCc1ccco1	nt	1%[11.4 µM]	-0.4%	nt	nt
COc1ccc(N2CCN(CC(=O)Nc3nc4c(s3)CC(C)CC4)CC2)cc1 (stereo not given)	i	-16%	-0.1%	i	4.4e-09
CCn1c(SCC(=O)Nc2nccs2)nnc1-c1ccncc1	i	-7%	1.7%	i	1e-09
O=C(O)c1ccc2c(c1)NC(=O)C(N1CCCC1)S2 (stereo not given)	i	2%	-0.3%	i	4.1e-08
CC(=O)Nc1ccc(NC(=O)C(C)Oc2ccccc2F)cc1 (stereo not given)	i	-2%	4.2%	i	5.8e-09
O=C(NCCc1ccncc1)Nc1ccc(Cl)cc1	i	-6%	1.4%	i	2.8e-08
CC(=O)Nc1ccc(S(=O)(=O)NCC2CCC(C(=O)NCCCN3CCCC3=O)CC2)cc1 (stereo not given)	i	23%[11.4 µM]	0.3%	i	1.6e-09
COc1cc(C(=O)Nc2cccc(-c3nc4cc(C)ccc4o3)c2C)cc(OC)c1OC	nt	10%	0.1%	nt	nt
O=C(CSc1nnc(Nc2ccccc2F)s1)NCc1ccco1	i	-2%	-0.8%	i	1.9e-08
Cc1cc(C)c(S(=O)(=O)NCCCN2CCOCC2)cc1Br	nt	7%	-0.1%	nt	nt
CCc1ccc(CCC(=O)Nc2sc3c(c2C#N)CCCC3)o1	i	9%	2.7%	i	4.1e-08
Cc1cc(C(=O)N2CC(C)CC(C)C2)n(-c2ccccc2)n1 (stereo not given)	nt	?	1.3%	nt	nt
CCOCCCNS(=O)(=O)c1ccc2c(c1)CCN2C(C)=O	i	-2%	1.1%	i	1.7e-08
Cc1cc(NC(=O)c2cc(CC(C)C)on2)no1	nt	4%	-0.7%	nt	nt
C/C(N)=C(/C#N)C(=O)COC(=O)C1Cc2ccccc2CN1S(C)(=O)=O (stereo not given)	i	0%	0.0%	i	9.2e-09
O=C(O)CNS(=O)(=O)c1cc(Cl)c(Cl)cc1Cl	i	19%	-1.8%	i	4e-09
CCCS(=O)(=O)N1CCC(C(=O)N2CCN(Cc3ccccc3)CC2)CC1	i	0%	0.8%	i	1e-09
CC(=O)N1CCc2cc(S(=O)(=O)N3CCc4ccccc4C3)ccc21	i	26%	-2.1%	i	1.1e-08
CSCCC(C(=O)Nc1ccc2c(c1)OCO2)N1C(=O)c2ccccc2C1=O (stereo not given)	i	-6%[11.4 µM]	-0.4%	i	2.3e-08

Single entries from the list.
TSHR agonist result of O=C(NCCc1ccncc1)Nc1ccc(Cl)cc1 = -6%
A647 fluor result of CCc1ccc(CCC(=O)Nc2sc3c(c2C#N)CCCC3)o1 = 4.1e-08
TSHR agonist result of CCCS(=O)(=O)N1CCC(C(=O)N2CCN(Cc3ccccc3)CC2)CC1 = 0%
TSHR agonist result of COc1cc(C(=O)Nc2cccc(-c3nc4cc(C)ccc4o3)c2C)cc(OC)c1OC = 10%

More entries follow:
SMILES	A488 autofl	TSHR agonist	AID923	Resorufin autofl	A647 fluor
CCN1CCN(CCCNC(=O)c2ccc3c(c2)NC(=O)c2ccccc2S3)CC1	nt	-9%	2.0%	nt	nt
Clc1ccccc1OCc1nn2c(-c3ccncc3)nnc2s1	i	6%	-1.8%	i	2.6e-08
CCOC(=O)c1c(C)[nH]c(C(=O)CN2C(=O)NC(C)(c3ccc(C)cc3)C2=O)c1C (stereo not given)	i	-8%	-0.5%	i	1.3e-08
CC1C(=O)CCC1(C(=O)O)c1ccccc1 (stereo not given)	i	-4%	-1.5%	i	5.3e-08
O=C(c1cc2c(s1)CCCC2)n1cccn1	i	4%	-1.6%	i	2.9e-08
CCOC(=O)C1=C(CNCc2ccc(C)cc2)NC(=O)NC1c1ccc(OC)cc1 (stereo not given)	i	nt	2.8%	i	1e-09
CCCCSc1nnc(CCC)n1N	i	1%	-0.6%	i	1e-09
COc1cccc(C(=O)N2CCN(Cc3ccccc3C(F)(F)F)CC2)c1	i	1%	-0.3%	i	1e-09
O=C1C=C(NCCN2CCOCC2)CC(c2ccccc2)C1 (stereo not given)	i	0%	1.2%	i	5.1e-09
CC(C)N=C(NC#N)SCC(=O)NC(C)(C)C	i	-1%	-1.4%	i	5.9e-09
Cc1cccc(C)c1NC(=O)CSc1nnc(-c2ccncc2)n1Cc1ccco1	i	9%	-0.3%	i	1.1e-08
COc1ccc(COC(=O)N/N=C2/C[C@@H](O)[C@@H](O)[C@@H]3[C@@H]4C(=O)N(C(C)(C)C)C(=O)[C@H]4CC[C@H]23)cc1	nt	0%[11.4 µM]	1.3%[11.5 µM]	nt	nt
COC(=O)c1ccccc1NC(=O)NCC1CCCO1 (stereo not given)	i	-10%	-1.5%	i	2.7e-09
Cc1cc(NCCCN2CCOCC2)n2nc(C)c(-c3ccccc3)c2n1	i	8%	-0.8%	i	1.2e-08
Cc1ncc(CSc2nnnn2-c2ccccc2)c(N)n1	i	3%	-1.7%	i	1e-08
O=C(c1ccccc1)N1CCCCC(S(=O)(=O)c2ccccc2)C1=O (stereo not given)	i	7%	0.1%	i	3.2e-08
O=C(CSc1nnc(-c2cccs2)n1-c1ccccc1)NCc1ccco1	i	15%	2.2%	i	8.8e-09
CCC(=O)c1ccccc1OCCCN1C(=O)NC(C)(C)C1=O	i	-4%	0.0%	i	1.9e-08
Cc1ccccc1CN1CCN(CC(=O)NCc2ccco2)C1=O	i	2%	-0.5%	i	2.6e-09
Cc1nc2ccccc2n1CC(O)Cn1c(C(F)(F)F)nc2ccccc21 (stereo not given)	i	?	1.5%	i	2e-08
CCCC(CCC(=O)Nc1ccc(C(=O)OC)cc1)C(=O)O (stereo not given)	i	nt	nt	i	8.7e-09
O=C(NCc1ccccc1)N[C@@H](Cc1c[nH]c2ccccc12)C(=O)O	i	14%	0.9%	i	2e-09
CCOCCn1c(CN(Cc2ccccc2)Cc2ccccc2)nc2c1c(=O)[nH]c(=O)n2C	i	7%	-1.4%	i	5.7e-09
C[C@@H](C(=O)Nc1ccc2ccccc2c1)[C@H]1C[C@]1(C)[C@H](NS(=O)(=O)c1ccc(-c2ccccc2)cc1)c1ccccc1	nt	1%	-0.2%	nt	nt
O=C1C2C3C=CC(C3)C2C(=O)N1c1ccc2c(c1)OCO2 (stereo not given)	nt	-4%	-1.9%	nt	nt
CN1CCN(CCCC(=O)c2ccc(F)cc2)CC1	i	?	0.2%	i	1e-09
COc1cccc(Nc2ncc(C(=O)O)c3ccccc23)c1	i	-6%	1.6%	i	1.5e-09
O=C(CSCc1ccco1)c1cccs1	i	1%	0.2%	i	1e-09
C[C@@H]1C=C[C@](Cc2ccccc2)(C(=O)NCCN2CCOCC2)N1C(=O)c1ccccc1	nt	?	1.8%	nt	nt
CCOc1ccccc1CNC(=O)C1CCN(c2nc3ccccc3o2)CC1	i	8%	-1.4%	i	1.2e-09
CCO/C=C/C(O)(CNC(=O)COc1ccccc1F)C(F)(F)F (stereo not given)	i	8%	-0.6%	i	2.4e-08
O=C(c1n[nH]c(=O)c2ccccc12)N1CCN(c2ccccc2)CC1	i	?	1.5%	i	1e-09
Cn1c2ccccc2c2c(C(=O)N3CCN(c4ccccc4)CC3)cn(C3CCCC3)c(=O)c21	i	29%	-1.5%	i	5.7e-09
CCC(=O)n1nc(-c2ccco2)nc1N	i	10%	-0.5%	i	3.1e-08
O=C(Nc1cccc(F)c1)C1CC(=O)N(c2ccc(Br)cc2)C1 (stereo not given)	i	6%	-0.6%	i	2.4e-09
CCCCN(C)CCNC(=O)Cn1ncc2c(=O)oc3ccc(C)cc3c21	nt	1%	3.0%	nt	nt

Entries from the list above containing fluorine, in the order listed:
SMILES	A488 autofl	TSHR agonist	AID923	Resorufin autofl	A647 fluor
CCOC(=O)C1CCCN(Cc2ccccc2F)C1 (stereo not given)	i	1%	-2.2%	i	7.5e-09
CC(=O)Nc1ccc(NC(=O)C(C)Oc2ccccc2F)cc1 (stereo not given)	i	-2%	4.2%	i	5.8e-09
O=C(CSc1nnc(Nc2ccccc2F)s1)NCc1ccco1	i	-2%	-0.8%	i	1.9e-08
COc1cccc(C(=O)N2CCN(Cc3ccccc3C(F)(F)F)CC2)c1	i	1%	-0.3%	i	1e-09
Cc1nc2ccccc2n1CC(O)Cn1c(C(F)(F)F)nc2ccccc21 (stereo not given)	i	?	1.5%	i	2e-08
CN1CCN(CCCC(=O)c2ccc(F)cc2)CC1	i	?	0.2%	i	1e-09
CCO/C=C/C(O)(CNC(=O)COc1ccccc1F)C(F)(F)F (stereo not given)	i	8%	-0.6%	i	2.4e-08
O=C(Nc1cccc(F)c1)C1CC(=O)N(c2ccc(Br)cc2)C1 (stereo not given)	i	6%	-0.6%	i	2.4e-09
